VDR inhibitor: vitamin D3 receptor (human) inhibition. P11473. VDR-SRC2-3 peptide fluorescence polarization, 2 h. Potency, µM, without a hit: max response, negative = inhibition, actives largely listed as inhibitors. actives 0.93% (n = 400,000). AID 504847; active means well fitted inhibition curve with a large enough effect; inconclusive means small, poorly fitted or top-dose-only effect, or another doubt; inactive means no such curve, though single readings can be large or run the other way; further: series mostly up to about 120 µM
Target sequence (P11473 whole entry, looked up): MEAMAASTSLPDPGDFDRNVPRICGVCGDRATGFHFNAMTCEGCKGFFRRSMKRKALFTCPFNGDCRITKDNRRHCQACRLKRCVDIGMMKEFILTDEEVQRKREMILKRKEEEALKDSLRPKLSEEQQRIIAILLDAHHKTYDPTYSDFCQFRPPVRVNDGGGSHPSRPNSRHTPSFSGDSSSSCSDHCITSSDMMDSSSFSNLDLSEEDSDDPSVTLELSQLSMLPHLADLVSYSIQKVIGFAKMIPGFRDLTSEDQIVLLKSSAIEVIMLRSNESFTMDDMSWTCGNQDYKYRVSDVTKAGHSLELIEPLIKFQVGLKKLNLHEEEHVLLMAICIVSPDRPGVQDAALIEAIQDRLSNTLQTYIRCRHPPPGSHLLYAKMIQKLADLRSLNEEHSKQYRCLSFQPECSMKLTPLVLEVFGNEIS
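Measured by FP: displacement of SRC2-3 coactivator peptide from VDR by library compounds, following a two-hour ambient incubation.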
* marks the source's active call; other numbers are inactive results; ? = inconclusive; & = joins results of further samples. On the % scale 0 is the no-effect control and ±100 the full control effect; potency means the concentration at half of the fitted maximal effect.

SMILES | VDR inhibitor
CCCn1cnc2c(SCc3ccc(Cl)cc3)nc(N)nc21 | 13.3%
Cc1ccc(C)c(NC(=O)C(Cc2ccccc2)n2cccc2)c1 (stereo not given) | 4.4%
N#Cc1sc2nc3c(c(-c4ccco4)c2c1N)CCCC3 | 2.8%
Cc1ccccc1C(=O)NCCCc1ccccc1 | 0.5%
O=C(Cc1c[nH]c2ccccc12)Nc1nc2ccccc2[nH]1 | -0.6%
C[C@H](NC(=O)NC1CCCc2ccccc21)C(=O)O (stereo not given in full) | 24.6%
COc1cccc(N2CCC(N3CCN(C)C(CCO)C3)CC2)c1 (stereo not given) | -10.7%
O=c1c(C(c2nnnn2C2CCCCC2)N2CCCCC2)coc2ccc(Cl)cc12 (stereo not given) | -20.5%
NC(=O)C1(C(N)=O)OC1c1ccc(Cl)c(Cl)c1 (stereo not given) | 0.8%
CC(C)(C)c1cn(-c2ccc(F)cc2)c(=S)[nH]1 | 7.4%
COc1ccc(N(C)C(=O)c2sc(Cl)nc2C)cc1 | 3.8%
CC(C)(C)NC(=O)C(c1ccc(O)cc1)N(Cc1ccccc1)C(=O)CCC(=O)Nc1nccs1 (stereo not given) | -4.4%
COc1ccc(C(=O)N(CC2CCCO2)C(C(=O)NCCC(C)C)c2ccc(C)cc2)cc1OC (stereo not given) | 0.9%
Cc1cccc(/C=C\c2nc3ccccc3c(=O)[nH]2)c1 | -1.8%
CC(C)NC(=O)c1ccc(-n2nc(C(F)(F)F)c3c2CCCC3)cc1 | -13.4%
CC(Sc1nc(=O)cc(N)n1CCc1ccccc1)C(=O)Nc1cccc(Cl)c1 (stereo not given) | -2.7%
Cc1ccc(-n2ncc3c(NCCCN4CCOCC4)ncnc32)cc1 | 0.8%
O=C(O)c1cccc(-n2cccc2/C=C2/NC(=O)N(c3cccc(Cl)c3)C2=O)c1 | 4.5%
CCc1cc2c(N3CCN(C(=O)c4ccco4)CC3)ncnc2s1 | -4.6%
CCc1c(C(=O)NN2C(=O)C3CCCCC3C2=O)csc1C (stereo not given) | 1.8%

The list goes on; it opens with the six that closed the last part.
SMILES | VDR inhibitor
CC(C)NC(=O)c1ccc(-n2nc(C(F)(F)F)c3c2CCCC3)cc1 | -13.4%
CC(Sc1nc(=O)cc(N)n1CCc1ccccc1)C(=O)Nc1cccc(Cl)c1 (stereo not given) | -2.7%
Cc1ccc(-n2ncc3c(NCCCN4CCOCC4)ncnc32)cc1 | 0.8%
O=C(O)c1cccc(-n2cccc2/C=C2/NC(=O)N(c3cccc(Cl)c3)C2=O)c1 | 4.5%
CCc1cc2c(N3CCN(C(=O)c4ccco4)CC3)ncnc2s1 | -4.6%
CCc1c(C(=O)NN2C(=O)C3CCCCC3C2=O)csc1C (stereo not given) | 1.8%
CN1/C(=C\C(=O)C[n+]2cccc(Br)c2)C(C)(C)c2ccccc21 | 19.9%
O=c1c2ccc([N+](=O)[O-])cc2ncn1Cc1ccccc1C(F)(F)F | -12.6%
O=C(CSC(=S)N1CCSCC1)c1ccccc1 | -2.1%
COc1cc(/C=C/C2=NNC(=O)CC2)cc(OC)c1OC | -4.3%
CCN(CC)CCCn1c(C)cc2c(c1=O)C(c1cc(OC)c(OC)cc1OC)C(C#N)=C(N)O2 (stereo not given) | -19.6%
C#CNC(=O)C1(CC=C)CCNCC1 | -0.6%
NC(=O)N/N=C/c1cn(-c2ccccc2)nc1-c1ccccc1 | 13.1%
CCc1nc2sc3c(c2c(=O)n1N)CCC3 | -13.8%
O=C(NCCc1cnc[nH]1)c1ccc(-c2ccccc2)cc1 | 27.0%
COc1cc(NC(=S)N2CCN(C(=O)c3ccco3)CC2)c(OC)cc1Cl | ?
COCCCn1c(C(=O)Nc2ccc3c(c2)OCO3)cc2c(=O)n3ccccc3nc21 | ?
CCOC(=O)COn1c(=O)c(-c2cccs2)[n+]([O-])c2ccccc21 | 14.7%
Cc1nc2ccc(S(=O)(=O)N(CC(=O)Nc3cccc(C)c3C)Cc3ccccc3)cc2s1 | -9.8%
CC(C)(C)N(NC(=O)OCc1ccccc1)C(=O)c1ccccc1 | -10.6%
O=C(CN1CCN(Cc2ccccc2F)C1=O)NCC1CCCO1 (stereo not given) | 3.1%
O=C(Nc1ccc2c(c1)OCCO2)C1CCN(S(=O)(=O)c2cccc3nsnc23)CC1 | -5.3%
Cc1[nH]c2ccc(CNS(=O)(=O)c3ccc(S(=O)(=O)N4CCOCC4)cc3)cc2c1C | 3.3%
CCOc1ccc(/C(CCC(=O)O)=N/NC(=S)NCCc2ccccc2)cc1 | 10.4%
Clc1ccc(-n2c(Cc3ccccc3)nnc2SCc2nc(-c3cccs3)no2)cc1 | 20.3%
COC(=O)c1cc2oc(C)cc2n1CC(=O)Nc1ccc(C)c(C)c1 | -10.7%
O=C(Cc1csc(-c2ccccc2)n1)NCc1ccco1 | -3.6%
O=C(/C=C/c1ccc([N+](=O)[O-])cc1)N1CCN(S(=O)(=O)c2ccccc2)CC1 | -1.4%
CC1Cc2ccccc2N1C(=O)C(C)n1cc(C(F)(F)F)cc(Cl)c1=O (stereo not given) | 4.5%
CC(C)NC(=O)C(=O)NCCc1ccc(Cl)cc1 | 11.5%
Cc1ccc(S(=O)(=O)N2CCN(C(=O)CSc3nnc(C)s3)C2)cc1 | -1.8%
COC(=O)c1c(-c2ccc(OC)cc2)sc2ccc(N3CCOCC3)cc12 | 5.4%
Cc1ccc(CNC(=O)C23CN(Cc4ccccc4)CC2C(c2ccc([N+](=O)[O-])cc2)=NO3)cc1 (stereo not given) | -7.1%
Clc1ccc(OCc2nnc(SCc3nnc(-c4ccccc4)o3)o2)c(Cl)c1 | -3.3%
CCCCN(C)S(=O)(=O)c1ccc(NC2=NS(=O)(=O)c3ccccc32)cc1 | -19.3%
CCOC(=O)c1cccc(OS(=O)(=O)Cc2ccccc2)c1 | -5.0%
C#CCSc1nc2sc3c(c2c(=O)n1Cc1ccccc1)CCCC3 | 8.6%
COC(=O)c1ccccc1NC(=O)C1CCN(C(=O)c2cc(OC)c(OC)c(OC)c2)CC1 | 0.1%
CCOC(=O)c1c(NC(=O)CSc2nccn2C)sc(C(=O)NC)c1C | -10.6%
Cn1c(=O)n(C)c2cc([N+](=O)[O-])c(N3CCN(C(=O)c4ccccc4)CC3)cc21 | 8.5%
Cc1ccc(CNC(=O)CSc2nc3ccsc3c(=O)n2-c2ccc(C(=O)O)cc2)cc1 | 10.7%
Cc1ccccc1NC(=O)Nc1c(C)n(C)n(-c2ccccc2)c1=O | -1.9%
O=C(c1cccc(F)c1)N1CCN(CC2CC3C=CC2C3)CC1 (stereo not given) | -4.1%
CN(CC(=O)Nc1ccccc1C(F)(F)F)C(=O)c1ccc2c(=O)n3c(nc2c1)CCC3 | 16.6%
CCN(CC)Cc1nc2c(c(=O)[nH]1)C(CC)(CC)Cc1ccccc1-2 | -1.1%
O=C(C1CCCN1C(=O)c1cccs1)N1CCc2ccccc21 (stereo not given) | -0.4%

Random excerpt: four records from the list.
SMILES | VDR inhibitor
CC(C)NC(=O)C(=O)NCCc1ccc(Cl)cc1 | 11.5%
Cc1nc2ccc(S(=O)(=O)N(CC(=O)Nc3cccc(C)c3C)Cc3ccccc3)cc2s1 | -9.8%
COc1cccc(N2CCC(N3CCN(C)C(CCO)C3)CC2)c1 (stereo not given) | -10.7%
CC(C)NC(=O)c1ccc(-n2nc(C(F)(F)F)c3c2CCCC3)cc1 | -13.4%

Part of the list above, comma-delimited.
mol,VDR inhibitor
Cc1ccccc1C(=O)NCCCc1ccccc1,0.5%
O=C(Cc1c[nH]c2ccccc12)Nc1nc2ccccc2[nH]1,-0.6%

New compounds follow.
SMILES | VDR inhibitor
Cc1cc(C)c(C)c(C(=O)CSc2nnc(-c3ccc4[nH]c(C)c(C)c4c3)o2)c1C | 3.4%
O=S(=O)(c1cccc(-c2n[nH]c(=S)n2-c2ccc(OC(F)(F)F)cc2)c1)N1CCOCC1 | -13.9%
CCOC(=O)c1cn(Cc2ccccc2)c2cc(C)nn2c1=O | -0.1%
O=C(Cn1nc(C(F)(F)F)c2c1CCCCC2)N1CCOCC1 | -12.7%
COc1ccc(-c2nn(CCC(=O)O)cc2/C=C2\SC(N)=NC2=O)cc1OC | 2.7%
CC(=O)N1c2ccc(S(=O)(=O)N3CCCC3)cc2CC1C(=O)NCc1ccc(OC(C)C)cc1 (stereo not given) | 0.5%
COc1cc(C(=O)Nc2nnc(Cc3ccccc3)s2)cc(OC)c1OC | -16.8%
CC1CCCCN1CC(=O)Nc1ccc2c(c1)OC(F)(F)O2 (stereo not given) | 9.9%
CC1(C)CC(=O)C2=C(C1)NC(=O)CC2c1cc(F)ccc1F (stereo not given) | 14.5%
Cn1c(CSCc2ccc(Cl)cc2)nnc1SCC(=O)Nc1nc2ccccc2s1 | 15.5%
[O-]/[N+](=C\c1ccc(OC(F)F)cc1)c1ccccc1 | ?
N#Cc1ccc(Oc2ccc(S(=O)(=O)N3CCCC3)cn2)cc1 | 2.9%
CC1CC(=O)Nc2ccccc2N1S(=O)(=O)c1ccc(C(F)(F)F)cc1 (stereo not given) | -13.4%
CCn1c(=O)cc(OCC(=O)N2CCN(c3cccc(Cl)c3)CC2)c2ccccc21 | -19.0%
CCOC(=O)CCN(Cc1cccs1)S(=O)(=O)c1ccc(F)cc1 | 1.8%
Cc1ccc(CNC(=O)CN2C(=O)NC(C)(c3ccccc3Cl)C2=O)cc1 (stereo not given) | 2.5%
Cc1cccc(Cn2cc(C(=O)c3ccccc3)c(=O)c3cc4c(cc32)OCO4)c1 | 5.2%
O=C(NCCc1ccccc1)c1ccc(NS(=O)(=O)c2ccc3[nH]c(=O)[nH]c3c2)cc1 | -15.7%
COC(=O)Cc1cnc(NC(=O)C2C3CCC(C3)C2C(=O)O)s1 (stereo not given) | 8.9%
CCCCC(=O)O | -9.4%
Cc1[nH]n(-c2ccc(F)cc2)c(=O)c1C=Nc1ccc(S(=O)(=O)N(C)C)cc1 | -12.9%
O=C(NCCN1CCNC1=O)C1CCC(=O)N(CCc2ccc(Cl)cc2)C1 (stereo not given) | -17.3%
CCOC(=O)C1(Cc2ccccc2)NC(c2ccccc2F)C2C(=O)N(CC)C(=O)C21 (stereo not given) | 6.7%
COc1cc(OC)cc(C(=O)Nc2ccc3c(c2)n(C)c(=O)c(=O)n3C)c1 | 4.0%
COc1cccc(NC(=O)c2ccc3nc(CCc4ccccc4)oc3c2)c1 | 2.5%
CSC(=O)NC(=O)NC(=O)c1ccc([N+](=O)[O-])cc1 | -2.9%
CC(C)CC(=O)N1c2nc(C(C)C)nn2C2(CCCCC2)[C@@H]2CCCC[C@@H]21 | 11.2%
C=CCN1C(=O)C2C(C(=O)NC3CCCC3)C3(C)C=CC2(O3)C1C(=O)NC1CCCC1 (stereo not given) | -18.7%
O=C(O)CCc1ccc(-c2ccccc2)n1NC(=O)c1sc2ccccc2c1Cl | 12.3%
CCSc1nnc(N2C(=O)C(O)=C(C(=O)c3ccco3)C2c2cccc(OC)c2)s1 (stereo not given) | ?
O=C(CSCc1c(F)cccc1Cl)NCc1cccnc1 | -5.7%
COC(=O)[C@H](COC(C)(C)C)NC(=O)O[C@@H]1C(=O)c2cc(Br)ccc2O[C@H]1c1ccc2c(c1)OCO2 | 4.3%
COc1ccc(N2CCN(C(=O)CCNS(=O)(=O)c3ccc(Br)s3)CC2)cc1 | 7.5%
O=C(NCc1ccccc1)C(=O)Nc1cccc(C(=O)O)c1 | -2.5%
CCOC(=O)C1C(C(=O)OC)=C(c2ccc(F)cc2)c2ccccc2N1S(=O)(=O)C(F)(F)F (stereo not given) | -16.8%&0.1%
COc1ccc2[nH]c3ccccc3c2c1 | -6.6%
COc1ccc(C)cc1N(CC(N)=O)S(=O)(=O)c1ccc(C)cc1 | 2.3%
Cc1ccc2nc(SCC(=O)Nc3ncccn3)[nH]c2c1 | 22.9%
CCCN(CCC)CCNC(=O)c1cc2c(=O)n(CC)c3ccccc3c2s1 | -11.1%
COc1cc(/C=N/NC(=O)NC23CC4CC(CC(C4)C2)C3)ccc1O | 3.9%
CC(C)c1nc2c(c(=O)c3ccccc3n2C)c(=O)n1CCc1ccccc1 | -6.6%
CC(=O)c1ccc(N2CCN(S(=O)(=O)c3ccc4c(c3)CC(C)N4C(=O)C3CC3)CC2)cc1 (stereo not given) | 14.6%
Cc1cccc(C)c1OCC(O)CNC(C)(C)C (stereo not given) | 2.1%
CC1=CC(=O)Nc2ccccc2S1 | -15.1%
Cc1cccc(NC(=O)CSc2nnnn2-c2ccc3c(c2)OCCO3)n1 | -12.4%
O=C(OCC(=O)N1CCOCC1)c1ccc2[nH]c3c(c2c1)CCCC3 | 3.2%
O=C(CC(=O)Nc1ccccc1C(F)(F)F)Nc1ccccc1C(F)(F)F | 4.3%
CCOc1ccccc1NC(=O)c1nc(-c2ccccc2)oc1C | 5.3%
Cc1nn(C)c(C(=O)N2CCOCC2)c1Cl | -19.8%
CCOc1cccc2sc(N(Cc3cccnc3)C(=O)C3CCCCC3)nc12 | 6.3%
COc1ccc(-c2nc3c(c(SCc4cc(C)ccc4C)n2)Cc2c(CO)cnc(C)c2O3)cc1 | 0.5%
O=C(c1cccc(C(F)(F)F)c1)C1CCCN(Cc2cccn2-c2ncccn2)C1 (stereo not given) | 5.8%
CCC(C)N1C(=O)CCC1C(=O)O (stereo not given) | 0.4%
Cc1nn(C(=O)N2CCCCC2)c(C)c1CN1C(=O)c2ccccc2C1=O | -8.1%
CCOC(=O)N1CCN(C(=O)CCSc2ccccc2)CC1 | 9.7%
O=C(NC(=S)Nc1ccc(CN2CCOCC2)cc1)c1ccco1 | 7.0%
CC(C(=O)N1CCc2ccccc21)n1cccc1 (stereo not given) | 5.9%
CC1(C)NC(=O)N(CC(O)CN(c2cccc([N+](=O)[O-])c2)S(=O)(=O)c2ccccc2)C1=O (stereo not given) | 12.0%
COc1ccc(-c2coc3c(OC)c(OC)cc(O)c3c2=O)cc1 | -0.1%
Cc1sc(NC(=O)CN2CCOCC2)c(C#N)c1C | -4.4%
CC(C)C(=O)Nc1c(O)c2ccccc2[nH]c1=O | 4.0%
Cc1ccc(C)c(N2CCN(S(=O)(=O)c3ccc4c(c3)CCCN4C(=O)C3CCC3)CC2)c1 | 9.1%

Assay outcomes deposited in PubChem BioAssay by National Center for Advancing Translational Sciences (NCATS).

An excerpt (hit frequency here may not be typical).
